ClpP mod – qHTS Assay for Activators of ClpP; purified B. subtilis ClpP, FRET peptide cleavage, 20 min; hit rate 1.9% among 340,000; Potency, µM (doses to about 57.5 µM), for the others: top-dose activity change, negative = active; AID 651965, 2013; ATP-dependent Clp protease proteolytic subunit (Bacillus subtilis (strain 168)), P80244; active = well fitted falling curve with a large enough effect; inconclusive = small, poorly fitted or top-dose-only effect; inactive = no such curve, though single readings can be large or run the other way; note: the source files actives as falling curves though it sought activators and does not explain the sign; nearly all actives have a fitted effect of over 65% in size; many hits overshoot -100%
Target sequence (P80244 whole entry, looked up): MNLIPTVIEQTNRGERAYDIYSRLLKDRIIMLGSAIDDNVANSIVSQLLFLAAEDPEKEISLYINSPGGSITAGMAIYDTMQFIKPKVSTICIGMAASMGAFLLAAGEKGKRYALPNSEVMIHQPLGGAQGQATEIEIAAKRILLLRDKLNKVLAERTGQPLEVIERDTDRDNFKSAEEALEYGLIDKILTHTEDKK
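Purified B. subtilis ClpP, 10 microg/mL final in Tris/HCl pH8 with KCl, BSA, glycerol and Tween-20, cleaved an Abz/nitrotyrosine-quenched decapeptide. Fluorescence (ex 320, em 430) was read at 0 and 20 min at room temperature. Delta was normalized to 5.8 microM ADEP and DMSO/no-enzyme controls.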
Active calls of the source: *; ? = inconclusive. Potency is the fitted concentration of half-maximal effect.

cpd | smiles | ClpP mod
1 | COc1cc(C2C(=O)N(C3CCCCCC3)CC(=O)N2CCC2=CCCCC2)ccc1OC(C)C (stereo unspecified) | 0.9%
2 | CCOC(=O)c1nc(Nc2ccc(Cl)cc2)c2c(C)noc2n1 | 2.9%
3 | COc1ccc(CCNC(=O)Cc2c(C)c3c(cc(C)c4c(C)coc43)oc2=O)cc1OC | -22.7%
4 | Fc1ccc2c(c1)NC(c1ccncc1)=NC(c1cccs1)=N2 | 0.9%
5 | Cc1cccc(N2CCN(Cc3cc(=O)oc4cc(C)ccc34)CC2C)c1 (stereo unspecified) | 0.3%
6 | O=C(NCc1cccs1)c1ccc2c(c1)sc1nc(-c3ccccc3)cn12 | 3.9%
7 | CCN(CC)C(=O)Cn1c(=O)n(CCCCCC(=O)NCc2ccccc2)c(=O)c2sccc21 | -0.4%
8 | O=C(CNC(=O)c1ccccc1)NCC(=O)OCC(=O)c1ccc2ccccc2c1 | 1.8%
9 | CCOCCn1cnc2sc(C(=O)Nc3ccccc3C(=O)OC)c(C)c2c1=O | -3.9%
10 | Cc1cccc(C)c1OCC(=O)NCC1(N2CCOCC2)CCCCC1 | -1.3%
11 | Cc1ccc(CN2CCc3nc(SCC(=O)Nc4cccc(C)c4C)[nH]c(=O)c3C2)cc1 | -13.7%
12 | COc1ccc2c(c1)c(=O)c(C(=O)c1ccc(F)cc1)cn2CC(=O)Nc1ccc2c(c1)OCO2 | -6.0%
13 | COc1cccc(NC(=O)c2cc3c(=O)n(Cc4cccnc4)ccc3nc2C)c1 | -8.4%
14 | COc1ccc(N(C(=O)c2ccccc2F)S(=O)(=O)c2ccc3c(c2)n(C)c(=O)n3C)cc1 | 0.5%
15 | CCN(CC)C(=O)c1ccc2c(c1)N(Cc1ccccc1F)C(=O)c1ccccc1S2=O (stereo unspecified) | 0.4%
16 | CCCCOC(=O)/C(C#N)=C/c1ccc(-c2ccc(Br)cc2)o1 | -1.6%
17 | Cc1ccc(Cn2c(=O)n(CCCCC(=O)NCCc3ccc(Cl)cc3)c(=O)c3ccccc32)cc1 | -28.7%
18 | COC(=O)c1ccc(-n2nnc(-c3nc(-c4ccccc4Cl)no3)c2C)cc1 | 0.1%
19 | O=C(NCC12CC3CC(CC(C3)C1)C2)c1cc2nc(-c3ccc(Cl)cc3)cc(C(F)(F)F)n2n1 | -2.6%
20 | COc1ccc(C2=Nc3ccc(C)cc3NC(c3ccc(Cl)cc3)=N2)cc1 | -1.7%
21 | COc1ccc(/C=C/C(=O)c2c(O)c(OC)c3occc3c2OC)cc1OC | -1.1%
22 | O=C(NCc1ccccc1)C(=O)NCC(c1cccnc1)N1CCN(c2ccccc2)CC1 (stereo unspecified) | -2.1%
23 | CCOc1ccc(Nc2oc(/C=C/c3ccc(OC)c(OC)c3)nc2C#N)cc1 | ?
24 | COc1ccc(CCNc2ncnc3c2cnn3-c2ccc(C)cc2)cc1 | ?
25 | CCCS(=O)(=O)c1c(Nc2ccccc2C)sc(C(=O)c2ccccc2)c1N | -12.3%
26 | CCCCNC(=O)c1cc(-c2cccnc2)nc2ccc(S(=O)(=O)NCCCC)cc12 | 0.4%
27 | CC1=C(C(=O)Nc2ccc(C)cc2C)C(c2cc(Br)ccc2F)n2ncc(C(=O)Nc3ccc(C)cc3)c2N1 (stereo unspecified) | 20µM*
28 | CCOc1ccc(-n2c(-c3ccc(Br)cc3)cc3c2CC(C)(C)CC3=O)cc1 | -23.5%
29 | Cn1c(SCc2ccccc2Cl)nc(=O)c2c1NC(=O)CC2c1cc(F)ccc1F (stereo unspecified) | 0.8%
30 | Cc1cc(NS(=O)(=O)c2ccc(NC(=O)c3ccccc3C)cc2)nc(C)n1 | 2.5%
31 | CCc1cccc(NC(=O)CSc2ncc3c(n2)-c2ccccc2N(Cc2ccccc2C)S3(=O)=O)c1 | -4.6%
32 | COc1cc(CN2CCc3nc(N4CCN(c5ccccn5)CC4)ncc3C2)cc(OC)c1OC | -2.6%
33 | Cc1cc(C)c2c(=O)cc(C(=O)Nc3c(C)n(C)n(-c4ccccc4)c3=O)oc2c1 | 0.0%
34 | Cn1c(C(=O)NCc2ccc(F)cc2)cc2c(=O)n(C)c3ccccc3c21 | -3.6%
35 | CCOc1cc(C2Sc3ccccc3NC3=C2C(=O)c2ccccc23)ccc1O (stereo unspecified) | -7.7%
36 | Clc1ccc(CNc2nc3ccccc3c3nc(-c4cccnc4)nn23)cc1 | -3.3%
37 | Cc1cc(C(=O)NCCc2ccc(Cl)cc2)c2c(C)nn(-c3ccccc3)c2n1 | 16.7%
38 | CCOC(=O)c1noc2nc(C)n(Cc3cccc([N+](=O)[O-])c3)c(=O)c12 | -0.8%
39 | COc1cc(C2c3c(-c4c(C)cc(C)cc4O)n[nH]c3C(=O)N2CCCOC(C)C)cc(OC)c1OC (stereo unspecified) | 3.8%
40 | Cc1c(Cl)cccc1NC(=O)C(C)n1nnc2sc3c(c2c1=O)CCCC3 (stereo unspecified) | 0.4%
41 | CCCN(CCC)C(=O)c1c[nH]c2ccc(S(=O)(=O)Nc3cc(C)cc(C)c3)cc2c1=O | -28.0%
42 | COc1ccc(NS(=O)(=O)c2ccc3c(c2)C(C(C)C)C(=O)N3)cc1 (stereo unspecified) | -3.8%
43 | CCCOc1ccc(CNC(=O)C2CCN(c3nc4ccccc4nc3C(F)(F)F)CC2)cc1 | 0.3%
44 | CCOc1ccc(-c2nc(CSCC(=O)NCCc3ccccc3)c(C)o2)cc1 | -20.8%
45 | Cc1cc(C)c(NC(=O)Cn2cc(S(=O)(=O)Cc3ccccc3F)c3ccccc32)c(C)c1 | -5.9%
46 | Cc1ccc(NC(=O)NCCOCCn2c(=O)oc3ccccc32)c(C)c1 | -0.9%
47 | O=C(NCC(c1ccc2c(c1)OCO2)N1CCN(c2ccccc2)CC1)c1ccccc1 (stereo unspecified) | -3.2%
48 | CSc1ccc(CCNC(=O)c2ccc(-c3nc(COc4ccc(C)cc4)c(C)o3)cc2)cc1 | -0.1%
49 | Cc1ccc(NC(=O)CSc2nnc3scc(-c4ccc(Cl)cc4)n23)cc1 | -5.4%
50 | Cc1ccccc1CNC(=O)c1cc2cccc3c2n1CC(C)S3 (stereo unspecified) | 39.8µM*
51 | CCCC(O)c1nc2ccccc2n1Cc1ccccc1OC (stereo unspecified) | -0.5%
52 | O=C(Nc1ccc(Br)cc1)C1CCCN1S(=O)(=O)c1ccc(F)cc1 (stereo unspecified) | -0.2%
53 | Cc1ccc(NC(=O)c2ccc(Cl)cc2Cl)c(C(=O)c2ccccc2)c1 | 0.7%
54 | Cc1ccc(Cn2c(=O)n(CC3CCC(C(=O)N4CCC(C)CC4)CC3)c(=O)c3sccc32)cc1 (stereo unspecified) | -0.6%
55 | CN(C)c1ccc(C=O)cc1Cl | 0.4%
56 | COc1ccc(Nc2c(-c3cccc(O)c3)nc3cnccn23)cc1 | -2.0%
57 | Cc1ccc(NC(=O)CC(C)S(=O)(=O)c2ccc3c(c2)NC(=O)CO3)cc1Cl (stereo unspecified) | 1.2%
58 | Cc1c(-c2nsc(NC(=O)c3ccc(Cl)cc3)n2)nnn1-c1ccc(C(C)C)cc1 | 25.1µM*
59 | COc1ccc(C)cc1NC(=O)c1oc2ccc(S(=O)(=O)N3CCC4(CC3)OCCO4)cc2c1C | -8.9%
60 | Cc1ccc(NC(=O)C2CCCN(S(=O)(=O)c3cccc4nsnc34)C2)c(C)c1 (stereo unspecified) | 2.0%

(further entries)
cpd | smiles | ClpP mod
61 | COc1cc(C2c3c(-c4cc(C)ccc4O)n[nH]c3C(=O)N2Cc2ccco2)cc(OC)c1OC (stereo unspecified) | 0.6%
62 | Cc1cc(C)c2c(-n3cccc3)c(C(=O)NCCCN3CCCCC3C)sc2n1 (stereo unspecified) | -2.0%
63 | Cc1cccc(C)c1N1CC(c2nc3ccccc3n2CC(=O)OC(C)C)CC1=O (stereo unspecified) | 0.7%
64 | O=C(COCc1cc(-c2ccco2)on1)Nc1cc(Cl)ccc1O | 1.7%
65 | O=C(NCc1ccc(Cl)cc1)c1ccc(CSCc2cccc(Cl)c2)o1 | -3.0%
66 | Cc1oc(-c2cccc(Br)c2)nc1Cn1c(SCc2cccc(F)c2)nc2cccnc21 | ?
67 | COc1ccc(-c2nnc(SCCOc3ccccc3C)o2)cc1OC | -10.6%
68 | COc1ccc(NC(=O)CSc2oc(-c3ccc(C)cc3)nc2S(=O)(=O)c2ccc(C)cc2)c(OC)c1 | -1.2%
69 | COc1ccc(NC(=O)COCc2cc(-c3ccc4c(c3)OCO4)on2)cc1 | ?
70 | Cc1ccc(C2=NC(c3ccc(F)cc3)=Nc3ccc(C)cc3N2)cc1 | 1.9%
71 | CCOc1ccc(/C=C(\C#N)C(=O)Nc2sc3c(c2C(=O)OC)C(C(=O)OC)CC3)cc1OC (stereo unspecified) | -1.6%
72 | COc1ccc(CC(=O)Nc2c(C(=O)Nc3ccc(F)cc3)oc3ccccc23)cc1OC | -20.1%
73 | CC(=O)C1=C(c2ccc(Cl)c(Cl)c2)N(C(C)=O)n2c(C)nnc2S1 | -5.6%
74 | CCc1nn2c(=O)cc(COC(=O)CNC(=O)c3ccccc3)nc2s1 | -11.1%
75 | CNS(=O)(=O)c1cn(CC(=O)N2CCN(c3cccc(C)c3C)CC2)cc1S(=O)(=O)NC | 0.6%
76 | CCCOc1ccc(CNC(=O)CN2C(=O)c3cccnc3Oc3ccc(C)cc32)cc1 | 0.3%
77 | N#C/C(=C\c1ccc(Br)cc1)c1nc(-c2cc3cc(Br)ccc3oc2=O)cs1 | -4.0%
78 | O=C(NCCCN1CCN(c2ccc(F)cc2)CC1)c1cc2c(Cl)nc3ccccc3c2s1 | -0.2%
79 | CCCS(=O)(=O)N1CCC(n2c(C)nc3cccnc32)CC1 | 0.2%
80 | CC(C)Oc1ccc(CN2CCc3nc(Nc4ccc5c(c4)OCCO5)ncc3C2)cc1 | -8.5%
81 | CCC(CC)C(=O)Nc1ccc(OCc2cc(=O)n3c4c(sc3n2)CCCC4)cc1 | -22.0%
82 | COc1ccc(N2CCN(C(=O)CSc3nc(-c4ccccc4)no3)CC2)cc1 | 0.4%
83 | CCCCOc1ccc(C(=O)Nc2ccc3c(c2)CCCN3C(=O)c2cccs2)cc1 | -2.7%
84 | COc1cc(C(=O)Nc2ccc(OCc3cc(=O)n4cccc(C)c4n3)cc2)cc(OC)c1OC | -0.7%
85 | COc1ccc(NC(=O)CC2C(=O)N(c3ccc(F)cc3)C(=O)N2Cc2ccc3c(c2)OCO3)cc1 (stereo unspecified) | -1.2%
86 | Cc1cc(C)nc(-n2nc(C)c3c2NC(=O)CC3c2cccc(O)c2)n1 (stereo unspecified) | 0.1%
87 | Cc1ccc(Cl)cc1-n1ncc2c(N3CCN(Cc4ccccc4)CC3)ncnc21 | -1.3%
88 | Cc1nn2c(=O)cc(COC(=O)c3cccc(NC(=O)c4cccs4)c3)nc2s1 | 4.1%
89 | Cc1ccc(-n2nc(C)c(C(=O)NCCCN3CCN(c4ccc(F)cc4)CC3)c2-n2cccc2)cc1 | -4.0%
90 | CCOc1ccc(CNC(=O)c2[nH]c3ccccc3c2Sc2ccc(C)cc2)cc1 | -2.0%
91 | CC1CCCN(Cc2cn3c(-c4cccc(Br)c4)nnc3s2)C1 (stereo unspecified) | -0.9%
92 | CCOc1ccccc1CNC(=O)c1cc2c(=O)n(Cc3cccnc3)ccc2nc1C | 6.31µM*
93 | CC(=O)c1ccc(N2CCN(S(=O)(=O)c3ccc(-c4coc(C)n4)cc3)CC2)cc1 | -16.2%
94 | O=C(NCCc1ccccc1)c1ccc(CSc2nc3ccncc3n2Cc2ccccc2)cc1 | -15.2%
95 | O=C(NCCc1ccc(Cl)cc1)c1ccc(CS(=O)(=O)Cc2ccc(F)cc2)o1 | 1.5%
96 | COc1[nH]c(/N=C/c2ccco2)c(C#N)c1C#N | 12.3%
97 | COc1ccc(Nc2ncc3c(n2)CCN(Cc2cc(Br)cs2)C3)c(OC)c1 | -3.4%
98 | Cc1ccc(NS(=O)(=O)c2ccc3c(c2)CCN3C(=O)C2CC2)c(C)c1 | 0.1%
99 | CCOC(=O)c1nnc2c(-c3ccc(Cl)cc3)c(C)nn2c1N | -2.5%
100 | Cc1ccc(/C=C/c2onc(C)c2S(=O)(=O)N2CCC(C(=O)Nc3ccc(OC(F)(F)F)cc3)CC2)cc1 | -28.7%
101 | C[N+]1(CC(=O)c2ccc(Oc3ccc(C(=O)C[N+]4(C)CCOCC4)cc3)cc2)CCOCC1 | -0.2%
102 | CCC(C(=O)OC)n1cnc2c(cnn2-c2ccc(F)cc2)c1=O (stereo unspecified) | -4.4%
103 | Cc1cc(C)cc(Nc2cc(C(=O)NCc3ccccc3)c3ccccc3n2)c1 | -16.2%
104 | N#C/C(=C\c1ccc(Cl)cc1)c1nc2ccccc2[nH]1 | ?
105 | COc1ccc(NC(=O)CSc2nc(-c3ccccc3)cc(-c3cc(OC)c(OC)c(OC)c3)c2C#N)c(OC)c1 | -28.9%

Bioassay records deposited in PubChem by National Center for Advancing Translational Sciences (NCATS).

Not all compounds are listed. The share of hits here may be higher or lower than overall.
